CBX7 inh – inhibitors of human CBX7 binding to H3K27me3 peptide | 66,000 tested, 1.1% active | AID 1224903 | normalised signal (fraction of DMSO) (test concentration not listed) | AlphaScreen His6-CBX7 / biotin-H3K27me3 peptide binding; stronger effect = lower value; in the data active = normalised signal below about 0.5;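 also: 100 nL library stock added to about 20 µL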
Target sequence (O95931 whole entry, looked up): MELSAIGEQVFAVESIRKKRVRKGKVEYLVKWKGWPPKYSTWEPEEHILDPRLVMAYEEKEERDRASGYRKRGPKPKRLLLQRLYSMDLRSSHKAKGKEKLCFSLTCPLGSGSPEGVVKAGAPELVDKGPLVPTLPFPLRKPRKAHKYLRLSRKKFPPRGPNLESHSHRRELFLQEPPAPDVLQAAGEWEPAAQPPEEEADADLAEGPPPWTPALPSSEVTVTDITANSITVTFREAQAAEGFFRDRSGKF
CBX7 inh z-score – second read-out of CBX7 inh, no call of its own (marks repeat the call); z-score; measured here: z-score of CBX7 signal; some inactives read as strong as hits; reference of the scale not given here;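 same signal on another scale; lower means less binding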
* = called active by the depositor; & = joins results of further samples. Some of the compounds tested; rates above refer to the full screens.

SMILES	CBX7 inh	CBX7 inh z-score
CC(=O)Nc1c2c(nn1-c1ccc(C)cc1C)CSC2	1.06	0.0635
CN1CCN(C2CC(=O)N(c3cccc(Cl)c3)C2=O)CC1 (stereo not drawn)	1.26	1.88
COc1ccc2nc(Cl)c3c(c2c1)OC(C)(C)C=C3	1.03	0.695
CCC1Oc2ccc(C)cc2N(CC(=O)N2CCN(Cc3ccccc3)CC2)C1=O (stereo not drawn)	0.981	-0.364
Cc1noc(NS(=O)(=O)c2ccc(NC(=O)c3c(-c4ccccc4Cl)noc3C)cc2)c1C	0.771	-2.25
CCCOc1ccc(N2C(=O)CC(N3CCOCC3)C2=O)cc1 (stereo not drawn)	0.945	-0.852
O=C(Nc1ccc(OC(F)(F)F)cc1)c1ccn[nH]1	0.968	-0.307
Cc1ccc(CNC(=O)c2cc(Sc3nnc(C)s3)nc3ccccc23)cc1	0.975	-0.709
Cc1nc2ccc(C(=O)NC(C)CCc3ccccc3)cc2nc1C (stereo not drawn)	0.979	-0.276
O=C1CC(NCc2ccc(F)cc2)C(=O)N1c1ccc(Cl)cc1 (stereo not drawn)	1.12	0.792
COc1ccc2nc(NC(=O)c3ccc(C#N)cc3)sc2c1	1.06	1.52
O=C(Nc1ccccc1)c1cccnc1NCc1ccccc1	1.16	1.57

Overlap with the part before: 2 entries; new compounds follow.
SMILES	CBX7 inh	CBX7 inh z-score
COc1ccc2nc(NC(=O)c3ccc(C#N)cc3)sc2c1	1.06	1.52
O=C(Nc1ccccc1)c1cccnc1NCc1ccccc1	1.16	1.57
CCOC(=O)CNS(=O)(=O)c1ccc2[nH]cc(C(=O)O)c(=O)c2c1	0.711	-3.26
CCOc1cccc(C(=O)Nc2cc(-c3nc4cc(C)ccc4o3)ccc2C)c1	1.04	1.75
C=CCc1cccc2cc(C(=O)Nc3cc(C)ccn3)c(=O)oc12	1.02	0.405
CN(Cc1ccccc1)c1ccc2nnc(-c3ccccc3)n2n1	0.884	-2.62
CCc1ccc(NC(=O)Cn2cc(S(=O)(=O)c3ccc(C)cc3)c(=O)c3cc(CC)ccc32)cc1	0.894	-1.49
Cc1oc(-c2ccc(Cl)cc2)nc1CN1CCCC(C(=O)NCCCN(C)C2CCCCC2)C1 (stereo not drawn)	1.05	1.44
Cc1ccc(C)c(N2CCN(C(=O)CCc3nc(-c4ccccc4F)no3)CC2)c1	0.996	-0.159
CCc1ccc(C2(c3ccc(CC)cc3)CC2C(=O)Nc2ccc(F)cc2)cc1 (stereo not drawn)	1.18	1.93
CC(C)CCNC(=O)c1ccc2c(c1)N(Cc1ccccc1)C(=O)CS2	0.994	-0.0765
CN1CCN(C(=O)C2c3ccccc3C(=O)N3CCc4ccccc4C23)CC1 (stereo not drawn)	1.14	2.8
COc1ccccc1N1CCN(C(c2cccs2)C(C)NS(=O)(=O)c2ccc(F)cc2)CC1 (stereo not drawn)	0.76	-3.09
O=C(Nc1ccccc1Cl)C1CCN(Cc2cnn(-c3ccccc3)c2-n2cccc2)CC1	0.946	-2.46

Grouped by structure, those above with an NH in an aromatic ring (2)
SMILES	CBX7 inh	CBX7 inh z-score
O=C(Nc1ccc(OC(F)(F)F)cc1)c1ccn[nH]1	0.968	-0.307
CCOC(=O)CNS(=O)(=O)c1ccc2[nH]cc(C(=O)O)c(=O)c2c1	0.711	-3.26

Other structures.
SMILES	CBX7 inh	CBX7 inh z-score
CC1CC(C)CN(CCCNC(=O)C2CCN(S(=O)(=O)c3cnc[nH]3)CC2)C1 (stereo not drawn)	0.951	-0.913
CCOc1cccc2sc(NC(=O)c3ccc(S(=O)(=O)N4CCCC(C)C4)cc3)nc12 (stereo not drawn)	1.02	0.475
COc1cc2c(C(=O)Nc3ccc(C(C)C)cc3)cn(CC(C)C)c(=O)c2cc1OC	0.788	-2.33
CCN(C(=O)CCc1nc(-c2ccc(OC)cc2)no1)c1ccccc1	1.05	0.763
O=C(NCc1cccnc1)c1ccc2c(c1)N(Cc1cccc(F)c1)C(=O)c1ccccc1S2	0.943	-1.6
Cn1c(C(=O)NCCCN2CCc3ccccc3C2)cc2sc(Cl)cc21	0.889	-1.82
COc1ccc(-c2nc(SCC(=O)Nc3nccs3)c(-c3ccc(Cl)cc3)[nH]2)cc1	0.948	-1.38
COc1ccccc1Nc1nc(C)cc(C)c1C#N	1.07	2.81
O=C(O)Cc1sc(Nc2cccc(Cl)c2)nc1-c1ccccc1	0.935	-1.65
C=CCN1C(=O)c2ccccc2Sc2ccc(C(=O)NCCc3ccc(C)cc3)cc21	0.954	-0.632
COc1ccc2c(c1)-c1nc(NC(=O)c3ccccc3Cl)sc1CC2	1.04	0.9
COc1cc(C2C(N3C(=O)c4ccccc4C3=O)C(=O)N2c2ccc(Cl)cc2)cc(OC)c1OC (stereo not drawn)	0.785	-5.91
Cc1ccc(C2C(=O)N(C3CCC(C)CC3)CC(=O)N2CCc2ccc(Cl)cc2)cc1 (stereo not drawn)	0.788	-1.66
CC1CCN(c2nc3ccc(C(=O)NCc4ccccc4Cl)cc3s2)CC1	1.14	3.11
CCC(CC)C(=O)Nc1c2c(nn1-c1ccc(F)cc1)CSC2	0.996	-0.202
Cc1cc(C)c(NS(=O)(=O)c2ccc3c(c2)CCN3C(=O)CCC(=O)O)c(C)c1	0.971	-0.48
COc1ccc(Nc2ncc(C(=O)Nc3cc(Cl)ccc3OC)c3ccccc23)cc1	1.33	6.84
CCOC(=O)c1cc(-c2ccc(OC)cc2)n(CCC(=O)NC2CCCCCCC2)c1C	0.791	-2.25
O=c1c2c3c(sc2ncn1Cc1ccc(F)cc1)CCC3	0.934	-1.53
Cc1nc2c(C(=O)O)cnn2c(C)c1Cc1ccc(Cl)cc1	1.02	0.639
O=C(c1cnn(-c2ccccc2)c1-n1cccc1)N1CCCC(C(=O)N2CCCCC2)C1 (stereo not drawn)	0.91	-0.683
COc1ccc(-c2noc(COc3ccc(Cl)cc3Br)n2)cc1	1.16	0.184
Cc1cc(C)cc(NC(=O)CSc2oc(-c3ccccc3)nc2S(=O)(=O)c2ccc(F)cc2)c1	0.9	-1.33
Cc1nc(NCc2ccccc2Cl)c2c(C)c(C)sc2n1	1.07	0.116

Retrieved one by one from above:
SMILES	CBX7 inh	CBX7 inh z-score
Cc1cc(C)cc(NC(=O)CSc2oc(-c3ccccc3)nc2S(=O)(=O)c2ccc(F)cc2)c1	0.9	-1.33
CCC(CC)C(=O)Nc1c2c(nn1-c1ccc(F)cc1)CSC2	0.996	-0.202
COc1ccc(-c2noc(COc3ccc(Cl)cc3Br)n2)cc1	1.16	0.184

The list continues.
SMILES	CBX7 inh	CBX7 inh z-score
CC(C)OC(=O)Nc1ccc2c(c1)N(C(=O)CCN1CCN(CCO)CC1)c1ccccc1CC2	1.04	0.622
Cc1c(C(=O)NCc2ccc3c(c2)OCO3)oc2ccc(S(=O)(=O)N3CC(C)CC(C)C3)cc12 (stereo not drawn)	1.03	0.162
CC(=O)Nc1cc(-c2cccc(Br)c2)nn1Cc1ccc(Cl)cc1	1.03	1.04
CCOC(=O)c1cc(-c2ccccc2)n(CCC(=O)Nc2ccccc2OC)c1C	1.08	1.46
Clc1ccc2nc3c(c(Nc4ccc(Oc5ccccc5)cc4)c2c1)CCCC3	1.03	0.0418
Cc1ccc(Nc2cc(C(=O)NCCCN3CCOCC3)c3ccccc3n2)cc1C	1.11	2.95
CCC1Oc2ccccc2N(CC(=O)NCc2ccccc2Cl)C1=O (stereo not drawn)	0.988	-0.366
COc1ccccc1C(=O)Nc1ccc2nc(N3CCCCC3)cc(C)c2c1	0.712	-7.5
COc1ccc(NC(=O)Cn2c(C)cc3ccccc3c2=O)c(OC)c1	1.07	1.47
CC1CCN(S(=O)(=O)c2cccc(C(=O)Nc3ccccc3C(=O)Nc3ccc(F)cc3)c2)CC1	0.788	-3.24
CC1(C)NC(=O)N(CCN2C(=O)c3ccccc3C2=O)C1=O	1.01	0.397
O=C(COc1ccc2oc3c(c2c1)CCCC3)Nc1ccccc1Cl	0.991	-0.087
CCCCOc1ccc(C(O)(CC)CCN2CCCCC2)cc1 (stereo not drawn)	1.39	3.03
Cc1ccc(NC(=O)Cn2cc(S(=O)(=O)c3ccccc3)c(=O)c3cc(F)ccc32)cc1Cl	0.983	-0.566
COc1cc(-c2nc3ncccn3c2Nc2ccc(C)cc2C)ccc1O	1.05	1.01
CC(C)Cn1c(CCNC(=O)c2ccc(Cl)cc2)nc2ccccc21	0.994	-0.195
CN(CCC#N)C(=O)c1c[nH]c2ccc(S(=O)(=O)Nc3ccccc3F)cc2c1=O	1.05	0.972
COCCNC(=O)CSc1nc(-c2ccc(Br)cc2)[nH]c1-c1ccccc1	0.909	-1.56
C=CCNC(=O)c1cc(-c2cccc(OC)c2)on1	1.24	1.39
COc1ccc(CCNC(=O)c2nonc2N)cc1	0.999	-0.0291
Cn1cnnc1SCc1ccc(F)cc1Cl	1.01	0.451
O=C(O)c1cc(-c2ccc(Cl)c(Cl)c2)nc2ccccc12	0.988	-0.15
Cc1cc(C)cc(Nc2cc(C(=O)NCc3cccnc3)c3ccccc3n2)c1	1.08	0.973
COc1cccc(N2C(=O)C(CC(=O)Nc3ccccc3)N(Cc3ccc(C)cc3)C2=O)c1 (stereo not drawn)	1	0.0764
Cc1cc(N(CCO)CCO)nc(-c2ccccc2O)n1	0.956	-1.16
O=C(COc1ccccc1Br)NCCc1nc2ccccc2[nH]1	1.15	0.254
CCc1cccc(NC(=O)CN(c2ccc(C)cc2)S(=O)(=O)c2c(C)noc2C)c1	0.964	-0.298
O=C(O)c1ccc(NC(=O)c2cccc(N3C(=O)c4ccccc4C3=O)c2)cc1	1.01	0.0102
COc1ccc(C2(CNC(=O)c3ccc(OC)c(OC)c3)CCOCC2)cc1	1.2	1.97
CCOc1ccc(-n2nc(C(=O)N3CCN(c4ccccc4OC)CC3)c3ccccc3c2=O)cc1	1.04	1.26
CC(C)C(=O)N1CC(=O)Nc2ccc(F)cc2C1c1ccccc1 (stereo not drawn)	0.963	-0.928
CCOc1cc2c(cc1OCC)C(c1ccccc1OC)NCC2 (stereo not drawn)	1.09	1.57
CCCCN(CCCC)S(=O)(=O)c1ccc(C(=O)Nc2nnc(COC)o2)cc1	0.156*	-1.47*
Nc1cccn2cc(-c3ccccc3)nc12	0.938	-2.78
COc1ccc(N2Cc3cccc(C(=O)Nc4ccccc4)c3C2=O)cc1	0.892	-2.63
COc1ccc(-n2cc(C(=O)Nc3ccc(OC)c(Cl)c3)c3ccccc3c2=O)cc1	0.885	-1.58
COc1ccccc1-c1cc(C(=O)NCc2ccc(F)cc2)no1	1.03	1.05
Cc1cccc(CCNS(=O)(=O)c2cnc[nH]2)c1	1.01	0.0118
CC(C)(C)c1ccc(S(=O)(=O)N(CCCN2CCOCC2)Cc2cccs2)cc1	0.88	-1.31
CCOC(=O)C1CCN(C(C(=O)Nc2ccc(C)cc2)c2ccccc2)CC1 (stereo not drawn)	0.952	-1.02
COc1ccccc1NS(=O)(=O)c1ccc2c(c1)CCN2C(C)=O	1.05	0.218
COc1cccc(NS(=O)(=O)c2ccc3[nH]cc(C(=O)NCc4ccccc4Cl)c(=O)c3c2)c1	0.851	-0.982
CCCCN(C)CCCNC(=O)C1CCN(Cc2nc(-c3ccc(Cl)cc3)oc2C)CC1	2.27	10.8
Cc1ccccc1OCc1nc(-c2ccc(OCC(N)=O)cc2)no1	1.02	0.22
COc1cc(OC)cc(-n2nc(C(=O)Nc3ccc(OC)c(Cl)c3)c3ccccc3c2=O)c1	0.974	-0.685
CCOC(=O)C(C)Sc1nnc(Cc2cc(=O)[nH]c(=O)[nH]2)n1-c1ccc(OCC)cc1 (stereo not drawn)	1.18	0.372
CCCC1CCC(c2ccc(-c3nc(-c4ccncc4)no3)cc2)CC1 (stereo not drawn)	1.15	2.34
CC1CCN(c2c(NCc3ccc(C(=O)N4CCCCC4)cc3)c(=O)c2=O)CC1	1.03	1.08

Ordered by molecular weight (lowest first): 3 of the compounds above
SMILES	CBX7 inh	CBX7 inh z-score
O=C(COc1ccccc1Br)NCCc1nc2ccccc2[nH]1	1.15	0.254
O=C(Nc1ccccc1Cl)C1CCN(Cc2cnn(-c3ccccc3)c2-n2cccc2)CC1	0.946	-2.46
Cc1cc(C)cc(NC(=O)CSc2oc(-c3ccccc3)nc2S(=O)(=O)c2ccc(F)cc2)c1	0.9	-1.33

(cont.)
SMILES	CBX7 inh	CBX7 inh z-score
COc1ccc(-n2nc3c(c2NC(=O)c2ccc(F)cc2)CSC3)cc1	0.899	-2.3
CNS(=O)(=O)c1cc(-c2nnc(Nc3cccc(O)c3)c3ccccc23)ccc1C	0.92	-2.05
CCc1ccccc1NC(=O)c1cc2c(n(-c3ccccc3)c1=O)CCCC2=O	1.04	2.18
COc1ccc(OCC(O)Cn2c(=N)n(C)c3ccccc32)cc1 (stereo not drawn)	0.992	-0.0523
CCCn1c(=N)n(CC(O)COc2ccccc2OC)c2ccccc21 (stereo not drawn)	0.963	-0.532
Cc1ccccc1OCc1nc(-c2cccnc2)no1	1.05	0.716
COc1ccc(OCc2nc3ccccc3n2CCc2ccccc2)cc1	0.902	-0.698
COc1cccc(N2CCN(S(=O)(=O)c3ccc4c(c3)CCN4C(C)=O)CC2)c1	1.11	3.43
CC(C)NC(=O)c1cc2n(n1)C(C(F)(F)F)CC(c1cccs1)N2 (stereo not drawn)	0.998	-0.0368
O=C(Cn1ccc2ccccc2c1=O)NCC(=O)Nc1ccc(F)c(Cl)c1	1.01	0.332
Cc1oc(-c2cccc(Cl)c2)nc1CN1CCC(C(=O)NC2CCCCC2)CC1	1.06	0.538
Cc1nc(Oc2ccc3c(c2)OCO3)c2c3c(sc2n1)CCCC3	1.04	0.045
COC(=O)c1ccc(-c2csc(NC(=O)c3ccc(S(=O)(=O)N4CCCC4)cc3)n2)cc1	0.96	-1.11
CCN(CC)CCn1c(NC(=O)c2ccccc2)nc2ccccc21	0.91	-2.64
Cc1ccc(Nc2nc(-c3ccc(S(=O)(=O)N4CCCCC4)cc3)cs2)cc1C	0.832&0.955	-1.11&-0.579

Bioassay records deposited in PubChem by several laboratories.
